Sfp inh: Sfp phosphopantetheinyl transferase inhibition | Q9F4F7 | 310,000 compounds, 3.5% hits | Biochemical Sfp PPTase activity, qHTS | Potency, µM, for the others: max response, negative = inhibition, actives largely listed as inhibitors | AID 1490; active = well fitted inhibition curve with a large enough effect; inconclusive = small, poorly fitted or top-dose-only effect, or another doubt; inactive = no such curve, though single readings can be large or run the other way;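 also: the enzyme is Sfp with the accession as filed and its product quenches rhodamine fluorescence; potency is read from the fitted curve at half-maximal effect; 0% = enzyme reaction without inhibitor and -100% = no enzyme wells; top concentration of the series not given in the record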
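Buffer: 50 mM Hepes-Na pH 7.6, 10 mM MgCl2, 0.01% Nonidet P-40, 0.01% BSA. Enzyme 15 nM, pre-exposed to compound 15 min; substrates then added and fluorescence change tracked over 30 min.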
PINK1 modulator: modulators of PINK1 expression; 410,000 compounds, 0.2% hits; Potency, µM (highest dose often 76.6 µM), for inactives: at the highest dose activation (PINK1 increase), most hits filed as activators; PINK1 immunofluorescence, high-content cytometry, 24 h; AID 624263; active = well fitted activation curve with a large enough effect; inconclusive = small, poorly fitted or top-dose-only effect; inactive = flat fitted curve, though single readings scatter; cell line not stated here;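 also: potency is read from the fitted curve at half-maximal effect; % of control where 0% means no effect; nearly all actives have a fitted effect of over 65% in size; a mitochondrial uncoupler was the plate control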
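PINK1 protein, normally rapidly degraded, was detected by immunofluorescence after 24 hour compound treatment of a stable cell line. Titration data (5 concentrations) came from laser-scanning cytometry, with CCCP-treated wells as controls.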
D2 ag: agonists of human D2 dopamine receptor (beta-arrestin); P14416; DiscoveRx PathHunter D2 beta-arrestin, luminescence, 90 min; 100% = 57 uM dopamine signal; activation, % (concentration not given with the values); 360,000 compounds, 0.084% hits; AID 624465; in the data active = activation above about 40%; inconclusive = about 15% to 40%; inactive = below about 15%; also: the text of the record calls up to 30% inactive
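Agonist mode: compounds alone added to overnight-plated D2 PathHunter cells for 90 min at 37 C, with 57 uM final dopamine (EC100) defining full response. Beta-arrestin recruitment detected by chemiluminescent reagent, read after 1 h at ambient temperature.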
CtBP-E1A inh: blocks the CtBP interaction with E1A. AlphaScreen GST-E1A/His-CtBP binding, 1536-well; active compounds read low; control for the full effect not named in the record. activity change, % (no concentration beside the values). 340,000 compounds, 0.49% hits. AID 651724; in the data active means activity change below about -65%; inconclusive means about -30% to -65%; inactive means above about -30%; also: % is scaled to controls: 0 for no effect and ±100 for the full control effect
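In 5 uL wells, 23 nL compound meets equimolar GST-E1A and His-CtBP (5X stock 125 nM each) for 2 h, 37 °C. Beads (5X, 50 ug/mL) then 1 h, 37 °C, dark.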
D2 PAM: positive allosteric modulators of human D2 dopamine receptor; P14416; DiscoveRx D2 beta-arrestin cells, luminescence, 90 min; 100% = 57 uM dopamine signal; potentiation, % (no concentration beside the values); 360,000 compounds, 0.23% hits; active = potentiation of 50% or more; inconclusive = 30% to 50%; inactive = 30% or less;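 also: compound concentration not given in the record; tested on top of an EC20 dose of dopamine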
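D2 cells co-treated with compound plus 50 nM dopamine (EC20) for 90 min at 37 deg C to detect potentiation. Beta-arrestin recruitment was read as enzyme-fragment luminescence after 1 h at ambient temperature. Full response was set by 57 uM dopamine.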
TRPV1 PAM: enhances activation of the human vanilloid receptor TRPV1; TRPV1-expressing cells, Fluo-8 calcium influx, capsaicin EC20 potentiation; host cell line not named in the record; control for the full effect not named in the record; 320,000 compounds, 0.02% hits; Q8NER1; potentiation, % at 8.33 µM; active means potentiation above 80%; inconclusive means 30% to 80%; inactive means below 30%; also: 0% is about no effect
Target sequence (Q8NER1 whole entry, looked up): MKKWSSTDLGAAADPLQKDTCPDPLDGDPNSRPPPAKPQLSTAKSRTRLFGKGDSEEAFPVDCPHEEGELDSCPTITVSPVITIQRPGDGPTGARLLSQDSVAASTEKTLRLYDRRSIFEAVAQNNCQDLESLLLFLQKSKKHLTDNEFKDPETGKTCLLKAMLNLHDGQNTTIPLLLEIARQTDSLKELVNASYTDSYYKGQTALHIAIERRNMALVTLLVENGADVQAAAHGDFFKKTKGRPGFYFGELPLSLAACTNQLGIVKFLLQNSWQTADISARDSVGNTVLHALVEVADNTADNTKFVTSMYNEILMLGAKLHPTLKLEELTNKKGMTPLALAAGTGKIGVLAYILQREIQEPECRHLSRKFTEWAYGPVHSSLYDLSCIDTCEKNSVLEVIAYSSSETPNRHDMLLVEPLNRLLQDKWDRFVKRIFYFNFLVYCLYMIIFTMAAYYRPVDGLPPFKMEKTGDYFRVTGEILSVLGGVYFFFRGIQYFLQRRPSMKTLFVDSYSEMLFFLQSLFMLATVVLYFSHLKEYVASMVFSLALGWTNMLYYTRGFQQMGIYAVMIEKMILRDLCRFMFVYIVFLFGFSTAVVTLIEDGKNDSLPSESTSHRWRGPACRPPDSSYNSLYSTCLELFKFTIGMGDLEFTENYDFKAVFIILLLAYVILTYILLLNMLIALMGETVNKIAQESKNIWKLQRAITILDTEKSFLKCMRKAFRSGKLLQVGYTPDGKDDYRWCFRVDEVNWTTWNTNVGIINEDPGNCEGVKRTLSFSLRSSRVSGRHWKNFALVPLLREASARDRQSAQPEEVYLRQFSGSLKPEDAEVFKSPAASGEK
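Cells expressing TRPV1 were dye-loaded with Fluo-8 and read kinetically: 10 s baseline, 3 min after compound (agonist portion), then 2 min after EC20 capsaicin (allosteric enhancer portion). Calcium-bound dye fluorescence at 480/520 nm.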
Six1-Eya2 inh: inhibitors of human Six1/Eya2 interaction | activity change, % (test concentration not listed) | AlphaScreen GST-Six1/His-Eya2 binding, biochemical; active compounds read low; control for the full effect not named in the record | Q15475+O00167 | AID 651725 | 360,000 compounds, 0.56% hits; in the data active = activity change below about -65%; inconclusive = about -30% to -65%; inactive = above about -30%; also: % is scaled to controls: 0 for no effect and ±100 for the full control effect
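Compounds are tested against tagged Six1 and Eya2 proteins bridged by glutathione donor and nickel acceptor beads; after a one-hour incubation at 37 °C without light, AlphaScreen emission is recorded.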
An asterisk follows results filed as active; u = inconclusive; x = no result given; & = joins results of further samples; [ ] = another dose, or the depositor's remark. Compounds were not picked by outcome; overall some 3.7% were active at least once.

Key to letters – A = Sfp inh; B = PINK1 modulator; C = D2 ag; D = CtBP-E1A inh; E = D2 PAM; F = TRPV1 PAM; G = Six1-Eya2 inh
CC(=O)Nc1cccc(C(=O)OCC(=O)c2ccc(S(=O)(=O)N3CCCCC3)cc2)c1
  A: x | B: 8.3% | C: -3.8 | D: -1 | E: -21 | F: -14 | G: -2
COc1cc(-c2noc(C)c2/C=C/c2ccc(OC(C)=O)cc2)cc(OC)c1OC
  A: -5% | B: 5.5% | C: 2.1 | D: -8 | E: 6 | F: -4 | G: -16
Cc1cccc(N/C=C/C(=C(C#N)C#N)N(C)C)c1
  A: 6% | B: 1.5% | C: -2.5 | D: 16 | E: -8 | F: 3 | G: -3
O=C(c1ccco1)N1CCN(C(=O)C23CC4CC(CC(C4)C2)C3)CC1
  A: 4% | B: 3.1% | C: 3.6 | D: 17 | E: -8 | F: -10 | G: 0
CCOC(=O)NC(=O)c1cn(Nc2ncc(C(F)(F)F)cc2Cl)c(=O)[nH]c1=O
  A: 22% | B: 1.5% | C: -6.7 | D: 19 | E: 3 | F: -10 | G: -2
CCC(=O)Nc1nnc(S(=O)(=O)N(CC(C)C)c2ccccc2)s1
  A: 11% | B: 2.1% | C: 0.5 | D: -19 | E: -2 | F: 4 | G: 1
COCCC(=O)N1CCOCC1c1cc(C(=O)NCc2ccccc2)no1 (stereo not given)
  A: x | B: 0.8% | C: -2.3 | D: 7 | E: 4 | F: x | G: 2
Cn1c(SCC(=O)c2ccc(F)cc2)ncc(C(=O)Nc2ccccc2)c1=O
  A: x | B: 16% | C: -1.4 | D: 5 | E: -11 | F: -2 | G: 7
O=C(CC1C(=O)NCCN1C(=O)c1ccc([N+](=O)[O-])cc1)Nc1cccc(Cl)c1 (stereo not given)
  A: 5% | B: 1.3% | C: 1.2 | D: 3 | E: 19 | F: u | G: 3
O=C(NCC1CCCO1)c1ccc(CS(=O)(=O)c2ccc(Br)cc2)o1 (stereo not given)
  A: -3% | B: 0.0% | C: -2.5 | D: 4 | E: -2 | F: 1 | G: 5
CCC(=O)NC(=S)Nc1cccc(NC(=O)CC)c1
  A: 7% | B: 2.8% | C: -2.4 | D: 9 | E: 3 | F: -5 | G: 2
COc1ccccc1NS(=O)(=O)c1cc(C(=O)NC2CC(C)(C)NC(C)(C)C2)ccc1Cl
  A: x | B: 1.0% | C: 0.8 | D: 0 | E: -6 | F: x | G: 20
CCOc1ccc2[nH]c(C)c(CN(C)C)c(=O)c2c1
  A: 7% | B: 0.2%[38.3 µM] | C: 1.7 | D: 6 | E: -9 | F: 1 | G: 1
Cc1cccc(N(CC(=O)NCc2ccccc2)C(=O)CCC(=O)Nc2nccs2)c1
  A: 5% | B: 4.0% | C: 3.1 | D: 3 | E: -7 | F: 4 | G: -3
O=C(NC(O)C(=O)c1ccccc1)c1ccc(F)cc1 (stereo not given)
  A: 19% | B: 1.5% | C: -2.8 | D: 8 | E: -5 | F: -7 | G: 10
Cc1ccc(N2C(=O)C3ON(c4ccccc4)C(c4ccncc4)C3C2=O)c(C)c1 (stereo not given)
  A: 0% | B: 4.0%[38.3 µM] | C: -0.7 | D: 46 | E: -6 | F: 7 | G: 22
NC(=O)C1(N2CCCCC2)CCN(C(=O)CSc2nc3ccccc3[nH]2)CC1
  A: 1% | B: 0.5% | C: -1.5 | D: -2 | E: -1 | F: 1 | G: 5
Cc1cc(C)c(NC(=O)CNC(=O)CN(C)Cc2ccc(Br)s2)c(C)c1
  A: x | B: -1.3% | C: 2.7 | D: -8 | E: -3 | F: 25 | G: 2
CN(C)/C=C(\C(=O)c1ccc(F)cc1F)c1nnnn1-c1ccccc1
  A: 11% | B: -0.6% | C: -1.8 | D: -3 | E: -9 | F: -3 | G: 1
CN1C(=O)C2(c3ccccc31)C1CCCC=C1C(C#N)=C(N)C2(C#N)C#N (stereo not given)
  A: 13µM* | B: 1.1% | C: 7.9 | D: -14 | E: -3 | F: -3 | G: -19
Cc1cc(NS(=O)(=O)c2c(C)c(C)cc(C)c2C)no1
  A: 19% | B: 0.5% | C: -0.3 | D: 6 | E: -8 | F: 14 | G: 14
COc1cc(OC)c2c(-c3ccccc3)cc(=O)oc2c1C(CCN1CCN(c2ccccc2)CC1)c1ccc(N(C)C)cc1 (stereo not given)
  A: 1%&-2% | B: 1.1% | C: 3.6 | D: u | E: -19 | F: -17 | G: u
CCn1c(SCCC(=O)Nc2ccccc2)nnc1-c1ccc(OC)cc1
  A: -19% | B: 0.1% | C: 1.0 | D: 4 | E: 0 | F: -9 | G: 1
CC(=O)N1CCc2cc(S(=O)(=O)NCCC(=O)Nc3cccc(C)c3C)ccc21
  A: 5% | B: 1.2% | C: -0.2 | D: -8 | E: 12 | F: -20 | G: -6
Cc1ccc(N(CN2C(=O)C3CC=CCC3C2=O)C(=O)c2ccco2)cc1Cl (stereo not given)
  A: -6% | B: -0.7% | C: -3.6 | D: 0 | E: -12 | F: -13 | G: -2

Reformatted: results already given.
Values in the order: Sfp inh	PINK1 modulator	D2 ag	CtBP-E1A inh	D2 PAM	TRPV1 PAM	Six1-Eya2 inh
Cc1ccc(N2C(=O)C3ON(c4ccccc4)C(c4ccncc4)C3C2=O)c(C)c1 (stereo not given)
 : 0%	4.0%[38.3 µM]	-0.7	46	-6	7	22
NC(=O)C1(N2CCCCC2)CCN(C(=O)CSc2nc3ccccc3[nH]2)CC1
 : 1%	0.5%	-1.5	-2	-1	1	5
Cc1cc(C)c(NC(=O)CNC(=O)CN(C)Cc2ccc(Br)s2)c(C)c1
 : x	-1.3%	2.7	-8	-3	25	2
CN(C)/C=C(\C(=O)c1ccc(F)cc1F)c1nnnn1-c1ccccc1
 : 11%	-0.6%	-1.8	-3	-9	-3	1

(cont.)
Key to letters – A = Sfp inh; B = PINK1 modulator; C = D2 ag; D = CtBP-E1A inh; E = D2 PAM; F = TRPV1 PAM; G = Six1-Eya2 inh
O=C(NCc1ccco1)c1cccc(-c2ccc3nccn3c2)c1
  A: x | B: 1.7% | C: 2.9 | D: -24 | E: -3 | F: x | G: -13
C=C1c2cc(OC)ccc2NC(=O)N1CC
  A: 19% | B: -1.0% | C: -2.2 | D: 0 | E: -20 | F: 7 | G: -1
O=C(NNc1nc(N2CCCC2)nc(N2CCCC2)n1)c1ccccc1
  A: x | B: 4.4% | C: 1.2 | D: 4 | E: 3 | F: x | G: -1
Fc1ccc(OCCCCCN2CCCC2)cc1
  A: 6% | B: x | C: -0.6 | D: 11 | E: -34 | F: 1 | G: 4
O=C(COC(=O)c1ccc(O)cc1)Nc1ccc(S(=O)(=O)N2CCOCC2)cc1
  A: x | B: 1.3% | C: 5.8 | D: -3 | E: -2 | F: x | G: 0
COc1ccccc1C(=O)NCC(=O)OCC(=O)Nc1nnc(-c2ccccc2)o1
  A: x | B: -1.5% | C: -2.4 | D: -27 | E: -2 | F: 9 | G: -7
O=C1C(Cc2ccc(O)cc2)NC(=S)N1C1CCCCC1 (stereo not given)
  A: -3% | B: 7.4% | C: -2.2 | D: 7 | E: -5 | F: 1 | G: -1
COc1ccc(CCN2C(=O)CC(NNC(=O)c3ccccc3Br)C2=O)cc1OC (stereo not given)
  A: 0% | B: -1.0% | C: -3.1 | D: -12 | E: -4 | F: 8 | G: 1
COc1ccc(CCN2CC(C(=O)NCCCc3ccncc3)CCC2=O)cc1 (stereo not given)
  A: x | B: 0.6% | C: -2.6 | D: -23 | E: -16 | F: x | G: 4
Cn1ccnc1SCC(=O)Nc1ccc(Oc2ccccc2)cc1
  A: 15% | B: 3.3% | C: 0.2 | D: -17 | E: -5 | F: -8 | G: -15
CN(C)S(=O)(=O)N1CCN(S(=O)(=O)c2ccc3ccccc3c2)CC1
  A: 7% | B: u | C: 0.4 | D: 7 | E: -2 | F: -13 | G: 4
Cc1nn(-c2ccc(F)cc2)c(Cl)c1/C=N/NC(=O)c1cccs1
  A: -23% | B: 8.5% | C: -1.8 | D: -10 | E: -19 | F: 9 | G: -10
Cc1ccc(OCCC(=O)OCC(=O)c2ccc3c(c2)NC(=O)CO3)cc1
  A: x | B: 3.4% | C: 6.8 | D: 2 | E: 2 | F: -14 | G: 23
Cc1nc2scc(-c3ccccc3)c2c(=O)n1N
  A: -26% | B: -1.5% | C: -0.9 | D: 2 | E: -12 | F: -5 | G: 8
C1=Nc2ccccc2CN1c1ccccc1
  A: 5% | B: 8.2% | C: 3.0 | D: 5 | E: -8 | F: 1 | G: 1
CCOCCCn1c(SCc2ccccc2)nnc1-c1ccncc1
  A: 4% | B: 1.9% | C: 4.0 | D: 2 | E: 2 | F: -2 | G: 9
C=CCn1c(COc2ccccc2)nnc1SCc1ccc(C#N)cc1
  A: 6% | B: -0.3% | C: -3.1 | D: 3 | E: -18 | F: -8 | G: -1
Cc1ccc(C)c(CN2CCNC2=O)c1
  A: 13% | B: u | C: -2.4 | D: 5 | E: -12 | F: u | G: 9
C/C(CC(=O)Nc1ccc(N(C)C)cc1)=N\NC(=O)c1ccc(F)cc1
  A: -21% | B: 0.8% | C: -1.9 | D: -28 | E: -5 | F: -5 | G: -23
CC(C)Oc1ccc(C(=O)Nc2nnc(SCC(=O)N3CCOCC3)s2)cc1
  A: 11% | B: 0.0% | C: -0.3 | D: 1 | E: -4 | F: 9 | G: -7
COc1ccc(CNC(=O)[C@@H]2CCCN2C(=O)[C@@H]2Cc3ccccc3CN2C(=O)OC(C)(C)C)cc1
  A: 12% | B: 1.5% | C: -2.9 | D: 1 | E: -7 | F: 7 | G: 1
Cc1ccccc1N(C)C(=O)C1CCCN(c2ncnc3c2nc2n3CCCCC2)C1 (stereo not given)
  A: -8% | B: 3.8% | C: -3.0 | D: -7 | E: -10 | F: -12 | G: -6
Cc1ccc(CNC(=O)CCC(=O)N2CC(C)Sc3ccccc32)cc1 (stereo not given)
  A: 23% | B: -0.9%&2.8% | C: -2.8 | D: -5 | E: -1 | F: 14 | G: 7
CC1(C)Cc2c(cnn2-c2ccc(F)cc2)C(NC(=O)CCN2CCCCO2)C1 (stereo not given)
  A: -1% | B: 2.1% | C: -3.9 | D: -2 | E: 5 | F: 12 | G: 6

Three entries already listed, arranged by the number in D2 ag, highest first.
smiles	Sfp inh	D2 ag	CtBP-E1A inh	D2 PAM	Six1-Eya2 inh
O=C(NNc1nc(N2CCCC2)nc(N2CCCC2)n1)c1ccccc1	x	1.2	4	3	-1
Cc1nc2scc(-c3ccccc3)c2c(=O)n1N	-26%	-0.9	2	-12	8
COc1ccc(CCN2C(=O)CC(NNC(=O)c3ccccc3Br)C2=O)cc1OC (stereo not given)	0%	-3.1	-12	-4	1
